NPYLR7 agonist: agonists of mosquito NPYLR7 receptor, primary screen, cell-based, Aedes aegypti, calcium fluorescence, mosquito biting behavior | HEK293T NPYLR7/Galpha15, GCaMP6s calcium fluorescence | activation, % at 10 µM | 0.15% of 270,000 active | AID 1259423, 2018; in the data active = activation above about 40%;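 note: 0% = vehicle and 100% = reference agonist at the receptor; some compounds past the cut are filed as inactive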
NPYLR7 agonist max-min: further read-out of NPYLR7 agonist, marked with its call; activation, %; measured here: Max-Min RFU normalised activation; some inactives read as strong as hits;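 span of the calcium signal over five minutes; 0% = vehicle and 100% = native peptide agonist; compound fluorescence can raise it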
Starred values were filed as active, the others as inactive; & = joins results of further samples. These rows are one share of the data, so the mix of outcomes need not match the whole.

The opening 3 compounds as a preview:
SMILES	NPYLR7 agonist	NPYLR7 agonist max-min
CCn1cnc2c(-c3ccccc3)cn(CC(=O)N(C)c3ccccc3)c2c1=O	3	3
CCOc1ccc(S(=O)(=O)n2nc(C)cc2C)cc1C	1	1
COc1ccc2cc(C3CN(C(=O)C4(N)CCC4)CCO3)ccc2c1 (stereo not given)	2	-5

This part in full, previewed entries included:
SMILES	NPYLR7 agonist	NPYLR7 agonist max-min
CCn1cnc2c(-c3ccccc3)cn(CC(=O)N(C)c3ccccc3)c2c1=O	3	3
CCOc1ccc(S(=O)(=O)n2nc(C)cc2C)cc1C	1	1
COc1ccc2cc(C3CN(C(=O)C4(N)CCC4)CCO3)ccc2c1 (stereo not given)	2	-5
COCCn1c(C)cc(O)c(C(c2cccnc2)N2CCN(c3ccc(F)cc3)CC2)c1=O (stereo not given)	14	4
CC1CCCN(C(=O)Cn2c(-c3ncccn3)noc2=O)C1 (stereo not given)	0	-2
O=C1CCC([N+](=O)[O-])C(c2ccc(C(F)(F)F)cc2)N1 (stereo not given)	-9	-14
CCOC(=O)C(NC(=O)CC)(N1CCc2ccccc2C1)C(F)(F)F (stereo not given)	-4	-7
CCOC(=O)C1CCCN(C(=O)c2cc(C)n3nc(-c4ccccc4)cc3n2)C1 (stereo not given)	-8	0
CC1=CC[C@@H]2CN(C(=O)CCn3cnc4ccccc43)C[C@@H]2C1	1	-1
OC(COc1cccc(CN2CCc3ccccc3C2)c1)CN1CCCCCC1 (stereo not given)	6	2
CC(CC(=O)Nc1ccc(N2CCCCC2)cc1)c1ccncc1 (stereo not given)	-1	-2
CC(C)(C)c1ccc(CCNC(=O)CS(=O)(=O)c2ncc[nH]2)cc1	4	2
Nc1nc(C(=O)Nc2ccccc2)cs1	4	2
CC(=O)Cn1c(CCl)nc2sc(C)c(C)c2c1=O	5	3
COc1ncccc1-c1ccnc(N)c1	-1	-5
CCOCCn1c(=NC(=O)c2cccc(S(C)(=O)=O)c2)sc2c(OC)ccc(OC)c21	2	-3
Cc1cc(NNS(=O)(=O)c2ccc(OC(F)(F)F)cc2)n2ncnc2n1	3	9
COc1ccccc1OCC1CN(C(=O)COc2ccc(F)cc2)CCO1 (stereo not given)	-7	-8
O=C(c1ccccc1F)N(Cc1nccn1Cc1cccc(C(F)(F)F)c1)CC1CC1	-2	4
CCNC(=O)C1(C)CCN(Cc2ccccc2-c2ccccc2)C1 (stereo not given)	1	2
CC1(C(=O)Nc2cccc3ccccc23)CCN1C(=O)CC1CCCC1 (stereo not given)	8	3
COc1cccc(C2c3nc[nH]c3CCN2Cc2ccnc3ccccc23)c1 (stereo not given)	-1	-6
Cc1nn(-c2ccccc2)c2c1C(=O)C(Br)C(C)(C)C2 (stereo not given)	-7	-9
O=C(Cn1nnn(-c2ccccc2)c1=O)Nc1ccc2c(c1)OCCO2	16	18
CSc1ccc(C(=O)N(C)CC2CCN(CCc3ccc(Cl)cc3)CC2)cc1	17	4
SMILES	NPYLR7 agonist	NPYLR7 agonist max-min
C=CCn1nc(C)c(-c2c(-c3ccccc3)ncn2CCc2nn[nH]n2)c1C	3	2
Cc1cc(C)n(CC(=O)N2CCc3c(cnc(C)c3CNC(=O)/C=C/c3cccs3)C2)n1	19	4
COc1ccc(/C=C2\C(=O)NC(=S)N(c3ccccc3)C2=O)cc1[N+](=O)[O-]	12	11
CCOC(=O)C1(CC2CC2)CCN(C/C=C/c2ccccc2OC)CC1	5	3
C=C1c2ccccc2C(=O)N1CC(=O)N1CCCC1c1ccc(Cl)cc1 (stereo not given)	0	-1
O=C(Nc1ccc2nc([C@H]3C[C@H](O)[C@@H](CO)O3)[nH]c2c1)Nc1cccc2nsnc12	-1	-7
CCN(Cc1ccncc1)Cc1cc(Cl)ccc1OC	4	3
CC1CN(C(=O)CCN2CCc3sccc3C2c2cccc(F)c2)CCN1C(=O)Nc1cccc(C(F)(F)F)c1 (stereo not given)	8	-2
Cc1cnccc1N1CCCN(Cc2cc(C#CCO)cs2)CC1	-2	-12
CC(c1ccc(-c2cc(C(=O)NC3CC3)ccn2)cc1)N1CCOCC1 (stereo not given)	-1	-4
CN(Cc1ccccc1)c1ncccc1CNC(=O)[C@H]1CCCN1	-9	-17
COCCS(=O)(=O)N(C)CC(=O)Nc1c(C)cccc1C	-3	-3
Cc1ccc(NC(=O)COc2ccc(F)cc2)c(Br)c1	1	0
Cc1oc2nc3c(c(=O)n(CC(=O)C(C)(C)C)c(=O)n3C)n2c1C	5	-1
Oc1oc(-c2cccc3ccccc23)nc1C=Nc1cccnc1	-3	-7
O=C(c1ccc2[nH]ccc2c1)N1CCC2(CCCN(CCc3ccccc3)C2)C1 (stereo not given)	16	3
O=C(Nc1cccc(-c2cc3ccccc3[nH]2)c1)C1CCN(C(=O)C2CC=CCC2)CC1 (stereo not given)	7&0	1&-1
Cc1ccc(-c2csc3nc(CSc4nnnn4C)[nH]c(=O)c23)s1	12	14
O=C(NNc1ccc(Cl)cc1)c1nc2ccc(Cl)cc2c(=O)n1CCO	1	0
CN(Cc1cn[nH]c1-c1ccc2c(c1)OCO2)C1CCCc2ccccc21 (stereo not given)	18	6
Cc1cc(-c2csc(N=CC(C#N)C#N)n2)c(C)n1CCC(C)C	30	31
O=C1c2cccc3cccc(c23)C(=O)N1CCCN(C(=O)c1ccccc1)c1cccc(F)c1	-9	-18
CC(NC(=O)c1ccc(F)c(S(=O)(=O)N2CCOCC2)c1)C1CC2CCC1C2 (stereo not given)	-5	-8
Cc1cc(NCC2CCCO2)n2nc(C)c(-c3ccccc3)c2n1 (stereo not given)	-4	-7
CCN1CCCC1CNC(=O)CCC1CCN(Cc2cc3ccccc3s2)CC1 (stereo not given)	8	9
SMILES	NPYLR7 agonist	NPYLR7 agonist max-min
Cc1ccc(/C=C/C(=O)N2CCC3(CC2)Nc2ccccc2C(=O)N3Cc2ccccc2)cc1	0	9
O=C(c1cnc(-c2ccccc2F)s1)N(C1CCCC1)C1CCCC1	13	8
O=C(Nn1cnc2ccccc2c1=O)c1ccc(Cl)cc1	-8	-2
c1ccc(-c2nc3c(c(NCC4CNCCOC4)n2)CCC3)cc1 (stereo not given)	-3	-8
Cc1nc(CN2CCN(C(=O)c3ccc(Cl)c(Cl)c3)CC2)oc1C	3	0
Cc1ccc(CNC(=O)CN2CCCC2c2ccc3c(c2)OCCO3)cc1 (stereo not given)	21	13
Clc1ccc(Oc2nc3ccccc3n3cnnc23)cc1	5	3
CCOCCn1c(=O)c2c(nc3n(-c4ccccc4F)c(C)cn23)n(C)c1=O	6	31
CC1=CC(=NNC(=S)NC2CCCCC2)CC1	0	3
c1ccc(CN2CCC(NCc3nc(C4CCCCC4)no3)CC2)cc1	-3	-6
CCN1C(=O)CC(CC(=O)N(C)Cc2cccc3ncccc23)(c2cccc(C(F)(F)F)c2)C1=O (stereo not given)	-7	-14
O=C(NCc1ccc2c(c1)OCO2)c1cccnc1N1CCN(S(=O)(=O)c2cc(F)cc(F)c2)CC1	22	15
CCOC(=O)C1CCN(C(=O)CC(c2ccc(F)cc2)c2cn(CC)c3ccccc23)CC1 (stereo not given)	21	18
O=C(NCc1ccco1)c1cnn(-c2cccc(F)c2)c1-c1ccccc1	21	24
COCCCN(CC(=O)N1CCc2sccc2C1c1ccc(C)cc1)C(=O)/C=C/c1ccccc1 (stereo not given)	-12	1
O=C(Nc1cc(C(F)(F)F)ccc1Cl)N[C@@H](Cc1ccccc1)C(=O)N1CCC(C(=O)N2CCOCC2)CC1	34	26
CCOC(=O)N1CCC(NC(=O)c2ccc(-n3nc(C)cc3C)cc2)CC1	-5	-8
O=C(NCCN1CCOCC1)c1cc(-c2ccccc2F)nc2cc(-c3ccccc3)nn12	-9	1
NC1=NC(c2ccc(O)cc2)n2c(nc3ccccc32)N1 (stereo not given)	6	0
O=C(NCc1ccc(F)cc1)Nc1nnc([C@H]2C[C@H](O)[C@@H](CO)O2)s1	-5	-6
O=S(=O)(NCC1(N2CCOCC2)CCCCC1)c1ccc(Br)s1	8	13
NS(=O)(=O)c1ccc(CCNC2CC(=O)N(c3ccccc3F)C2=O)cc1 (stereo not given)	-4&1	-7&-1
O=C(Nc1ccc2c(c1)OCO2)c1cnn2c1NC(c1ccc(F)cc1)CC2C(F)(F)F (stereo not given)	0	-4
CCC(CO)N(Cc1ccsc1)C(=O)c1cccnc1OC (stereo not given)	-1	11
Cc1cc(C)[n+]2nc([S-])sc2n1	-7	-18

Profiles, quoted from the list.
`CCN1C(=O)CC(CC(=O)N(C)Cc2cccc3ncccc23)(c2cccc(C(F)(F)F)c2)C1=O` (stereo not given) is listed with NPYLR7 agonist = -7; NPYLR7 agonist max-min = -14
`O=C(NCCN1CCOCC1)c1cc(-c2ccccc2F)nc2cc(-c3ccccc3)nn12` is listed with NPYLR7 agonist = -9; NPYLR7 agonist max-min = 1

By substructure, those above containing a Cl atom (9)
SMILES	NPYLR7 agonist	NPYLR7 agonist max-min
CC(=O)Cn1c(CCl)nc2sc(C)c(C)c2c1=O	5	3
CSc1ccc(C(=O)N(C)CC2CCN(CCc3ccc(Cl)cc3)CC2)cc1	17	4
C=C1c2ccccc2C(=O)N1CC(=O)N1CCCC1c1ccc(Cl)cc1 (stereo not given)	0	-1
CCN(Cc1ccncc1)Cc1cc(Cl)ccc1OC	4	3
O=C(NNc1ccc(Cl)cc1)c1nc2ccc(Cl)cc2c(=O)n1CCO	1	0
O=C(Nn1cnc2ccccc2c1=O)c1ccc(Cl)cc1	-8	-2
Cc1nc(CN2CCN(C(=O)c3ccc(Cl)c(Cl)c3)CC2)oc1C	3	0
Clc1ccc(Oc2nc3ccccc3n3cnnc23)cc1	5	3
O=C(Nc1cc(C(F)(F)F)ccc1Cl)N[C@@H](Cc1ccccc1)C(=O)N1CCC(C(=O)N2CCOCC2)CC1	34	26

(continued)
SMILES	NPYLR7 agonist	NPYLR7 agonist max-min
CCCNc1nnc(SCc2cscn2)s1	3	4
COc1ccc(N(Cc2nnc3n2CCCCC3)C(=O)Nc2ccc(C)cc2)cc1OC	19	14
CCN1CCN(S(=O)(=O)c2ccc(OC)c(N3CCN(C(=O)CCSC)CC3)c2)CC1	27	18
COc1ccc(-n2nc(C(=O)O)c(=O)n(Cc3cccc(Cl)c3)c2=O)cc1	30	38
CCOC(=O)c1cccnc1N1CCN(C2CC(C)(C)NC(C)(C)C2)CC1	18	2
COc1ccc(-c2cc(N)n(-c3ccc(C(=O)NCCc4cccnc4)cc3)n2)cc1	6	5
c1ccc2nc(N3CC[C@H]4CC[C@@H](C3)N4)cnc2c1	-4	17
COCCN(CC(=O)N(CCc1c[nH]c2ccccc12)Cc1ccc(OC)c(OC)c1)C(=O)c1cccc(F)c1	-5	2
O=C(c1cc(Cl)cc(Cl)c1)N(c1ccccn1)c1ccccn1	3	0
CC(C)NC(=O)c1nnc2n1CCN(C(=O)c1ccccc1Cl)C2	5	5
c1cc2c(cc1C1=NNC(=NC3CC3)SC1)CCC2	-23	-26
CC(Oc1cccc(-c2nnc3n2CCCCC3)c1)C(=O)Nc1ccc(C#N)cc1 (stereo not given)	0	18
Cc1cc(C)n(-c2ccc(C(=O)Nc3ccc(Oc4ccccc4)cc3)cc2)n1	24	9
Cc1nn(C)c(C)c1CC(=O)NNC(=O)c1cc(Cl)ccc1O	9	9
O=C(C1CC1)N1CCCN(c2nc3ccccc3[nH]2)CC1	-6	-7
O=C(NCc1cccs1)C1CC(=O)N(C2CCCC2)C1 (stereo not given)	2	1
COCC(C)n1c(C)cc(C(=O)COC(=O)CN=C2NS(=O)(=O)c3ccccc32)c1C (stereo not given)	4	12
CN(CC(=O)NCC(O)C1CCCCC1)C(=O)OC(C)(C)C (stereo not given)	11	8
CC(OCC(F)(F)F)C(=O)N(Cc1ccco1)Cc1ccco1 (stereo not given)	7	2
CCCCCC(=O)Cc1cc(O)cc(O)c1C(=O)Oc1cc(CC(=O)CCCCC)c(C(=O)O)c(OC)c1	-9	-13
CC(=O)N(c1nc(Cn2cnc(C#N)n2)cs1)c1ccc(C)cc1C	4	2
CCCCc1ccc(C(=O)N2CCC[C@@H]2C(=O)NC2CCC(NC(=O)c3ccc(OC)cc3)CC2)cc1 (stereo not given in full)	0	-1
COC(=O)c1cnc(NC(=O)C2(C)CCN(C(C)C)C2)s1 (stereo not given)	2	-2
O=C(NC1CC1)C1CCN(C2CCN(Cc3cccc4c3OCO4)CC2)CC1	13&-4	9&-6
CC(C)(C)NC(=O)Cn1cc(Cl)cn1	7	4
SMILES	NPYLR7 agonist	NPYLR7 agonist max-min
CC1C(=O)N(c2ccccc2F)CCN1C(=O)C1CCCC1 (stereo not given)	-1	9
CCn1cc(CN2CCCC(Nc3ccc4c(c3)OCO4)C2)c2ccccc21 (stereo not given)	-3	-5
CN1C[C@@H]2CC[C@H](CC1=O)N2C(=O)c1cc(=O)[nH]c2ccc(F)cc12	-1	-1
O=C(CCc1ncc(-c2c(F)cccc2F)o1)N1CCN(S(=O)(=O)c2cccc(Cl)c2)CC1	-5	-5
CCn1c(C2CCCN(C(=O)CC3CC4CCC3C4)C2)n[nH]c1=S (stereo not given)	-4	1
COc1ccc(N2C(=O)CC(N(CCc3ccc(OC)c(OC)c3)C(C)=O)C2=O)cc1 (stereo not given)	-9	-14
O=C(COc1ccc(C2CC(c3ccccc3)=NN2C(=O)c2cccs2)cc1)N1CCOCC1 (stereo not given)	-3	-4
COc1ccc(-c2csc3ncn(CC(=O)NC(N)=O)c(=O)c23)cc1	1	12
Cc1ccc(OCc2occc2C(=O)N2CCCn3cncc3C2)cc1	26	19
CCCCCCC(=O)Nc1c(-c2ccc(Cl)cc2)nc2cc(C)ccn12	-2	4
COc1ccc(C2C(C(=O)c3ccccc3)C(O)(C(F)(F)F)N(C)C(=O)N2C)cc1 (stereo not given)	0	-2
COc1ccc(-c2nc(N(CCC(=O)N3CCN(c4ccccc4F)CC3)Cc3ccccc3)c3ccccc3n2)cc1	-16	2
O=C(COCc1ccccc1Cl)NNC(=O)C1CCCO1 (stereo not given)	-2	-4

Compound activity (PubChem BioAssay)
